B2AR ag = agonists of human beta-2 adrenergic receptor inducing internalization; Am2.2-beta2AR cells, FAP receptor internalization, flow cytometry; reference of the scale not given here; response, % (no concentration beside the values); 340,000 tested, 0.43% active;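 active = response above a set limit, near 3 SD of response in nonfluorescent compounds, cut at about 42% in these data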;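 note: stock transfer was 100 nL into about 11 µL; a reference agonist was the positive control; negative values mostly stem from fluorescent compounds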
Target sequence (P07550 whole entry, looked up): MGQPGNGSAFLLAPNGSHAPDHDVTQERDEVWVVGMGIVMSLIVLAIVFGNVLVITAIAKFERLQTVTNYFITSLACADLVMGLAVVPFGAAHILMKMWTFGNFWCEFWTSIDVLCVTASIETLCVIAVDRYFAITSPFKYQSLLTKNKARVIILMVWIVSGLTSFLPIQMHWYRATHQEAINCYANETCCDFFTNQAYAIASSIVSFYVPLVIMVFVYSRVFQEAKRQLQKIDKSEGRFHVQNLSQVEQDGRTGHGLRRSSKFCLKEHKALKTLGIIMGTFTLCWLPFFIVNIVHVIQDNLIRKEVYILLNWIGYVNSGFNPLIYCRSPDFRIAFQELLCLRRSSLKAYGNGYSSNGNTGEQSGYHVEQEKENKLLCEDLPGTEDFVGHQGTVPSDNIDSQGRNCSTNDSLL
E coli growth = blocks Escherichia coli growth. AID 1053175. OD600, 23 h; active compounds read low. OD600 absorbance (test concentration not listed). 330,000 tested, 0.21% active;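 active = OD600 absorbance below the run mean of sample wells minus 3.6 SD, in any replicate, cut at about 0.56 in these data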;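 note: stock transfer was 300 nL into about 60 µL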
FGF22 binding = shifts melting point of recombinant human FGF22; 340,000 tested, 1.5% active; recombinant FGF22 thermal shift, SYPRO orange fluorescence; percent of sucrose octasulfate shift, DMSO zero; Q9HCT0; calls only at 9.99 µM;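 active = melting point raised past a set limit in the mean and every replicate; three in four hits are not shown here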
Target sequence (Q9HCT0 whole entry, looked up): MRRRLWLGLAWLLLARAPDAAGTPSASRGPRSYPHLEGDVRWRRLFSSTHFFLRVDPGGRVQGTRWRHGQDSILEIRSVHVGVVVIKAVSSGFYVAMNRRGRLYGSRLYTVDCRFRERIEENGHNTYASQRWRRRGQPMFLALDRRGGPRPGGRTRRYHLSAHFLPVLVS
ALR H2O2 inh = human ALR oxidase inhibition via reduced H2O2; purified ALR, DTT oxidation, H2O2 HRP-luminol luminescence; inhibition, % (no concentration beside the values); P55789; 290,000 tested, 3.8% active;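 active = mean and each replicate at 75% or more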;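 note: stock transfer was 7.5 nL into about 7.5 µL; 0% = neutral wells and 100% = wells with inactivated enzyme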
Ecoli rRNA inh = inhibitors of bacterial rRNA selective over humanized ribosomes | E. coli WT GFP vs humanized-ribosome RFP mutants, fluorescence, 24 h; active compounds read low; DMSO median 0, no signal -100 | GFP signal change (wild-type ribosome), % (no concentration beside the values) | AID 720706 | 350,000 tested, 1.6% active;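 active = significant combined selectivity score with lowered wild-type GFP, culture density cut under 30%, mutant RFP and density less affected; inactive = any of these conditions unmet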; note: one replicate is shown; some compounds called inactive have numbers as strong as hits
HNF4A DNA FP = change in binding of human HNF4 alpha to DNA; P41235; 360,000 tested, 0.3% active; HNF4a-FITC DNA binding, fluorescence polarization, 1 h; AID 1224865; activity change, % at 10 µM; in the data active = activity change above about 30%, passing the limit was not always enough;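 note: controls were the assay level and a saturating level of protein; the project sought stronger binding though the title names inhibitors; some compounds called inactive have numbers as strong as hits; positive values seem to mean higher polarization but the record does not say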
Target sequence (P41235 whole entry, looked up): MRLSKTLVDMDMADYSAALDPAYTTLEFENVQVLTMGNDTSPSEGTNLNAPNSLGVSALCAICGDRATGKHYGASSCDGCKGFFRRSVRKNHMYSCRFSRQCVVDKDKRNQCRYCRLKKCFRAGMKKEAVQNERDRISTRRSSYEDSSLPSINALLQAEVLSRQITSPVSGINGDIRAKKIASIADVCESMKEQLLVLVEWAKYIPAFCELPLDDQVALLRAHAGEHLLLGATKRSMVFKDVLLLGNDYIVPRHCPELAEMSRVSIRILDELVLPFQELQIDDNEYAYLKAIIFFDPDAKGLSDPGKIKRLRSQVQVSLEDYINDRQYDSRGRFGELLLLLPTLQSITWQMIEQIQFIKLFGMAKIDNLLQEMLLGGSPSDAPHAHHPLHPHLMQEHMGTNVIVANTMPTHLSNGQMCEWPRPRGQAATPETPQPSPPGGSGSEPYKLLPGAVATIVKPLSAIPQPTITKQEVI
UCH37 DUB inh = blocks the human deubiquitinase UCH37 | AID 588478 | purified proteasome/UCH37, Ub-AMC cleavage fluorescence | 330,000 tested, 0.33% active | Q9Y5K5 | inhibition, % (no concentration beside the values);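 active = mean of two replicates above 20%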;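 note: 0% = compound-free wells with enzyme and 100% = wells lacking proteasome; stock transfer was 100 nL into about 20 µL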
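assay system = human UCH37 enzyme supplied as purified proteasome complex | amount = proteasome at 0.15 nM in the dispensed enzyme solution | schedule = 30 min compound-proteasome preincubation then 25 min substrate reaction, room temperature | measured by = fluorescence, ex 355 nm, em 460 nm | benchmarks = no-proteasome wells (full inhibition) and compound-free wells (no inhibition)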
Ecoli rRNA inh OD600 = second read-out of Ecoli rRNA inh, no call of its own (marks repeat the call); OD600 change, %; measured here: OD600 growth;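 optical density of the mix in the first replicate; 0 = DMSO median and -100 = no signal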
Ecoli rRNA inh RFP = also measured in Ecoli rRNA inh; calls as there; RFP signal change, %; measured here: RFP humanized mutant strains;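 first replicate; 0 = DMSO median and -100 = no signal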
* hit, by the source's call; i = inactive; x = not tested or not shown; & = joins results of further samples.

The opening 6 entries (preview)
molecule	B2AR ag	E coli growth	FGF22 binding	ALR H2O2 inh	Ecoli rRNA inh	Ecoli rRNA inh OD600	Ecoli rRNA inh RFP	HNF4A DNA FP	UCH37 DUB inh
O=C1CC(c2ccccc2)CC(O)=C1C=Nc1ccccc1O (stereo not drawn)	-4	0.67	i	0	-3	0	-0.7	1.4	0.0
CC1CN(C(=O)COc2ncnc3ccccc23)CC(C)O1 (stereo not drawn)	-7	0.7	x	-7	x	x	x	4.8	0.3
Cc1cc2nc(-c3ccc(SCC(=O)Nc4ccc(S(=O)(=O)NC5CC5)cc4)nc3)[nH]c2cc1C	10	0.71	i	2	1	7	8.5	5.7	-82
O=C1NC(=O)C(=Cc2ccccc2)N1	1	0.68	i	x	2	2	0.4	2.7	5.8
O=S1(=O)N=C(N/N=C/c2cccs2)c2ccccc21	4	x	x	x	2	7	4.5	2.0	x
COC(=O)c1c(NC(=O)CSc2nc3ccccc3c(=O)n2Cc2ccco2)sc(C)c1C	-5	0.65	i	-6	6	10	5.2	8.8	1.4

This part in full, from the first entry:
molecule	B2AR ag	E coli growth	FGF22 binding	ALR H2O2 inh	Ecoli rRNA inh	Ecoli rRNA inh OD600	Ecoli rRNA inh RFP	HNF4A DNA FP	UCH37 DUB inh
O=C1CC(c2ccccc2)CC(O)=C1C=Nc1ccccc1O (stereo not drawn)	-4	0.67	i	0	-3	0	-0.7	1.4	0.0
CC1CN(C(=O)COc2ncnc3ccccc23)CC(C)O1 (stereo not drawn)	-7	0.7	x	-7	x	x	x	4.8	0.3
Cc1cc2nc(-c3ccc(SCC(=O)Nc4ccc(S(=O)(=O)NC5CC5)cc4)nc3)[nH]c2cc1C	10	0.71	i	2	1	7	8.5	5.7	-82
O=C1NC(=O)C(=Cc2ccccc2)N1	1	0.68	i	x	2	2	0.4	2.7	5.8
O=S1(=O)N=C(N/N=C/c2cccs2)c2ccccc21	4	x	x	x	2	7	4.5	2.0	x
COC(=O)c1c(NC(=O)CSc2nc3ccccc3c(=O)n2Cc2ccco2)sc(C)c1C	-5	0.65	i	-6	6	10	5.2	8.8	1.4
Cc1ccccc1OCC(=O)NCCN1CCCC1	-9	0.75	x	1	x	x	x	0.5	2.0
Cc1cccc(N2CCN(C(=O)c3ccc4c(c3)c(C)c(C)n4C)CC2C)c1 (stereo not drawn)	11	0.71	i	-7	-9	-40	26	11	5.7
COc1cccc(C(=O)N2CCN(C(=O)COc3ccc4ccccc4c3)CC2)c1	5	0.67	i	-16	-6	-18	0.0	0.2	-0.8
Clc1nc2sccn2c1/C=N/n1cnc2ccccc21	-10	x	i	-15	3	0	0.4	-1.4	x
Cc1ccc(S(=O)(=O)N2CCC(=O)N2)cc1	-9	0.71	x	36	x	x	x	0.8	1.9
CCN1CCN(C(=O)c2cnn3c(C(F)F)cc(-c4ccc(C)cc4)nc23)CC1	-2	0.73	x	-2	x	x	x	-1.8	-50
O=C(Cn1cnnn1)Nc1cccc([N+](=O)[O-])c1	2	0.7	i	-9	4	3	-2.9	5.4	2.2
COc1cc(-c2cc(C(=O)Nc3ccc(C)c(S(=O)(=O)N4CCOCC4)c3)c3ccccc3n2)cc(OC)c1OC	22	0.68	i	-11	4	9	3.6	3.5	-95
CN(C(=O)CC(=O)Nc1ccc(Cl)c(Cl)c1)c1ccccc1	9	0.74	i	-28	-5	-4	0.3	-0.9	5.7
O=C(c1ccccc1)c1c[nH]cc1-c1ccccc1	4	0.77	x	-1	x	x	x	4.7	4.0
Clc1ccc(CO/N=C/c2c(-c3ccccc3)nc3n2CCS3)c(Cl)c1	-6	x	x	-9	x	x	x	-0.9	x
CC1CC1C(=O)OCC(=O)Nc1ccc(Cl)cn1 (stereo not drawn)	3	0.65	i	18	1	6	-3.0	-0.6	-3.5
COc1ccc(NC(=O)CN(C)C(=O)C(Sc2ccccc2)c2ccccc2)cc1 (stereo not drawn)	4	0.72	i	-1	-7	-33	-3.0	-1.3	-2.6
O=C(COC(=O)c1cccnc1Cl)Nc1nc(-c2ccccc2)cs1	-1	0.61	x	13	x	x	x	0.7	-1.1
COC(=O)c1ccc(CN=C(NS(=O)(=O)c2ccccc2)c2ccccc2)cc1	-7	0.67	i	-5	-16	-3	3.2	0.3	-0.2
CC(=O)Nc1nc2cc3c(cc2s1)OCCO3	-4	0.69	i	-11	-6	0	-6.9	3.4	4.9
Cc1ccc(C(=O)NCc2ccco2)cc1S(=O)(=O)Nc1cccc(C)c1C	1	0.73	x	-2	x	x	x	0.4	-2.2
CCOc1ccccc1NC(=O)c1cc(C(=O)Nc2ccccc2OCC)cc(N2C(=O)CCC2=O)c1	-5	0.73	i	-8	18	18	1.2	4.8	-3.4
Cc1ccccc1-c1csc(C(O)c2cccnc2)n1 (stereo not drawn)	x	x	i	x	2	5	-0.7	1.2	x
CC1(C)CC2CC(C)(CN2C(=O)C23CCC(C)(C(=O)C2)C3(C)C)C1 (stereo not drawn)	-1	0.7	x	-6	x	x	x	-3.4	2.1
CN1CCN(c2ccc(S(=O)(=O)N3CCCCC3)cc2N)CC1	-2	0.71	i	x	7	17	-3.3	3.2	4.1
CNC(=O)CSc1nc2ccccc2c(=O)n1C1CCCCC1	-10	0.67	i	-18	2	-1	-1.4	5.2	2.5
COc1ccc(NC(=O)CC2C(=O)NC3CCCCC3N2C(=O)c2ccc(F)cc2)cc1 (stereo not drawn)	13	0.7	i	-4	1	9	0.9	2.3	0.6
O=S(=O)(c1ccc(F)cc1)c1nc(-c2ccccc2)oc1N1CCOCC1	-15	0.7	i	1	20	17	0.4	0.7	4.5
Cn1c(C(=O)NCc2cccs2)cc2oc3ccccc3c21	10	0.75	x	-13	x	x	x	2.5	-8.3
COc1ccc(Sc2ccc(/C=C3\C(=O)NN(c4ccccc4)C3=O)o2)cc1	15	0.73	x	46	x	x	x	-4.2	12
Cc1c(NC(=O)c2cc(-c3ccc(Cl)cc3)on2)c(=O)n(-c2ccccc2)n1C	-5	0.65	i	3	x	x	x	1.1	0.9
CCNC(=S)N/N=C/c1ccc(-c2ccccc2)o1	-8	x	x	0	x	x	x	2.5	x
O=C(c1ccccc1F)N(NC(=O)C(O)(c1ccccc1)c1ccccc1)c1ccccc1	5	0.69	x	-21	x	x	x	-0.1	0.2
Cc1cc(NC(=O)CCN2CCC(C)CC2)ccc1Br	19	0.59	i	-13	8	-6	2.3	3.8	3.3
C[C@H]1CN([C@@H](C)CO)C(=O)CCCn2nncc2CO[C@@H]1CN(C)Cc1cccc(C(=O)O)c1	x	x	i	x	-1&4	-6&11	0.5&-3.5	-0.7	x
Cn1c(CNC(=O)c2ccco2)nnc1SCC(=O)c1ccc(F)cc1	-8	x	i	86*	0	-1	0.9	-11	x
COc1ccccc1NS(=O)(=O)c1cc(NC(=O)c2cc(=O)[nH]c3ccccc23)ccc1N1CCOCC1	10	0.65	i	x	-2	-7	-4.8	2.5	4.2
O=C(Cc1ccccc1)Nc1ccc(NC(=O)c2ccco2)cc1	-14	0.61	i	-4	2	14	-3.5	-1.4	1.2
Cn1c(=O)c2[nH]c(SCCN3CCOCC3)nc2n(C)c1=S	1	0.66	i	x	-3	4	-0.4	-1.1	4.9
COc1ccccc1/C=N/NC(=O)c1csc(C)c1C	-4	x	i	x	9	13	-1.9	-4.0	x
COc1cc(/C=C2\SC(N3CCc4ccccc4C3)=NC2=O)cc(OC)c1OC	-9	0.71	i	2	1	8	-6.0	-3.3	-11
CCCCNC(=O)C(C)N(CCN(C)C)C(=O)CCCN1C(=O)NC(c2ccc(Cl)cc2)C(C(=O)OCc2ccccc2)=C1C (stereo not drawn)	24	0.68	i	x	-31	-42	-7.2	3.2	2.7
Cc1cc(Cl)ccc1NC(=S)N1CCN(Cc2ccccc2)CC1	-4	0.7	x	-18	x	x	x	0.1	6.1
Cc1ccc(C(C(=O)NCCc2ccccc2)N(C(=O)c2csnn2)C2CC2)o1 (stereo not drawn)	19	0.72	x	-1	x	x	x	-7.6	0.5
Cc1ccc(S(=O)(=O)N(C)C)cc1NC(=O)COC(=O)c1ccc2c(=O)n3c(nc2c1)CCC3	-2	0.67	i	-10	4	-1	4.6	-2.1	-15
CCN(Cc1ccccc1)C(=O)CSc1ncn[nH]1	-2	0.69	i	-5	5	16	-2.6	1.0	1.2
CCn1cc(/C=C(\NC(=O)c2ccccc2Cl)C(=O)N2CCOCC2)c2ccccc21	-6	0.62	i	38	-6	-11	0.7	-2.8	7.6
O=C(Cn1nnc2ccccc21)N1CCCCC1	0	0.69	x	-3	x	x	x	-3.4	-0.5
CCOCCCNC(=O)/C(C#N)=C/c1ccc(C)o1	-2	0.63	i	-36	2	-7	1.6	1.3	7.2
CCCCn1c(N)c(N(CCOC)C(=O)COC(=O)COc2ccccc2C#N)c(=O)[nH]c1=O	1	0.68	i	0	8	14	-1.1	-0.4	0.4
COc1ccccc1NNC(=O)c1cc(C(C)(C)C)nn1Cc1ccccc1	-10	0.67	i	-22	-6	0	0.3	0.7	0.7
CCOc1ccc(-c2noc(CCC(=O)NC)n2)cc1OCC	8	0.7	x	0	x	x	x	1.0	1.2
CCCCC1(Cc2ccc(OC)c([N+](=O)[O-])c2)C(=O)N(c2ccccc2)N(c2ccccc2)C1=O	-4	0.76	x	34	x	x	x	-1.0	0.1
C/C(=N\Nc1ccc([N+](=O)[O-])cc1)c1ccc(N)cc1	5	x	i	98*	-18	-13	2.3	20	x

Later entries
molecule	B2AR ag	E coli growth	FGF22 binding	ALR H2O2 inh	Ecoli rRNA inh	Ecoli rRNA inh OD600	Ecoli rRNA inh RFP	HNF4A DNA FP	UCH37 DUB inh
O=C(Cn1nnc(-c2ccccc2F)n1)Nc1ccc(C(=O)N2CCOCC2)cc1	-1	0.76	x	3	x	x	x	-1.6	3.3
O=C(NC1=C(NC2CCS(=O)(=O)C2)C(=O)c2ccccc2C1=O)c1ccccc1 (stereo not drawn)	8	0.65	i	-29	-44	-70	-15	-1.1	62*
Cc1[nH]n(-c2nc(-c3ccccc3)cc(=O)[nH]2)c(=O)c1CCO	-1	0.68	x	11	-15	3	5.0	2.1	4.9
COc1ccc(Cl)cc1NC(=O)CCc1nnc2ccc(N3CCN(C)CC3)nn12	2	0.66	i	-7	1	6	1.2	0.7	2.0
COc1cc(C)c(Br)cc1S(=O)(=O)NCCN1CCOCC1	-1	0.66	i	x	1	4	-2.4	1.4	-1.3
Cc1c(O)c2c3c(cccc3c1O)C(=O)N(c1ccccc1)C2=O	4	0.68	x	-17	x	x	x	-2.9	6.8
Cc1noc(C)c1S(=O)(=O)N(CC(=O)O)c1ccc2c(c1)OCO2	4	0.75	x	-12	x	x	x	-0.8	0.8
c1ccc(Nc2c3c(nc4ccccc24)CCC3)cc1	-6	0.64	i	x	-12	-21	-5.3	2.2	-2.2
Cn1c(=O)c2c(nc(SCC(=O)NC34CC5CC(CC(C5)C3)C4)n2C)n(C)c1=O	-5	0.68	x	-4	x	x	x	-3.8	1.9
CCOC(=O)N1CCN(C(=S)Nc2ccc(C)cc2)CC1	0	0.69	x	2	x	x	x	0.4	0.5

Screens (PubChem)

These rows are one share of the data; the hit share may differ from the screen's.
